hNpr1 antagonist = human Npr1 receptor antagonism; HEK293 hNpr1 GloSensor cGMP, ANP-stimulated luminescence; P16066; Potency, µM (doses to about 46.3 µM), for inactives: top-dose activity change, negative = inhibition, most hits filed as inhibitors; actives 1.6% (n = 76,000); AID 1347048; active = well fitted inhibition curve with a large enough effect; inconclusive = small, poorly fitted or top-dose-only effect; inactive = no such curve, though single readings can be large or run the other way;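 further: nearly all actives have a fitted effect of over 60% in size; nearly all hits also lower the signal before the agonist is added; a reference antagonist and vehicle were the controls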
Target sequence (P16066 whole entry, looked up): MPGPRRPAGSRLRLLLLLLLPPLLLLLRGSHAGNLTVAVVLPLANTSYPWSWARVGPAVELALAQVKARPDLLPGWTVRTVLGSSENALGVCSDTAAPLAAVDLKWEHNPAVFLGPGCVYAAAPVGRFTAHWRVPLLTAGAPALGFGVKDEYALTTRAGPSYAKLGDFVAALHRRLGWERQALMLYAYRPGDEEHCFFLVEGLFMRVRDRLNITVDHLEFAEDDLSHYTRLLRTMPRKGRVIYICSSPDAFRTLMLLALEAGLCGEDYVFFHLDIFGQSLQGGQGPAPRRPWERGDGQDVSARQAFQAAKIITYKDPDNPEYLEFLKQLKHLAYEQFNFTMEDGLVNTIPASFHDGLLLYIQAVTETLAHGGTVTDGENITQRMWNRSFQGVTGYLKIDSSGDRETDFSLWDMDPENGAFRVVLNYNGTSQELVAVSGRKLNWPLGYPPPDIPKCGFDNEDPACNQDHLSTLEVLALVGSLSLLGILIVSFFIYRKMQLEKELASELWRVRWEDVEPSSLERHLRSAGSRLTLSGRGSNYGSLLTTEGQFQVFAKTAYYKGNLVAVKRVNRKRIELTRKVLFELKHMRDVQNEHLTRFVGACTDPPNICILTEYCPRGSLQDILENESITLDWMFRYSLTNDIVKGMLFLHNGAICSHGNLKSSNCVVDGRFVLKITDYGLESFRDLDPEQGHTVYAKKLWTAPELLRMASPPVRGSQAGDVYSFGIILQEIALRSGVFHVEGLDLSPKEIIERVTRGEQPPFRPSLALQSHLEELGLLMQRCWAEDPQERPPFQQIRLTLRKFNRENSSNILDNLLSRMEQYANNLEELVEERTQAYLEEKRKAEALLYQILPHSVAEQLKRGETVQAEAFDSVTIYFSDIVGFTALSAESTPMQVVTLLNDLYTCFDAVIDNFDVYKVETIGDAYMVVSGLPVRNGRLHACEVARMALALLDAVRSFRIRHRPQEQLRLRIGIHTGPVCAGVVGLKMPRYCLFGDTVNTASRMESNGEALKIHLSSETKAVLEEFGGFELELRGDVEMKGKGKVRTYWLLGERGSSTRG
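Compound pre-incubated 30 min at room temperature on GloSensor-loaded HEK293 cells stably carrying hNpr1 and the pGS-40F cGMP biosensor. Stimulation uses hNppA at 0.1 nM final; luminescence is taken at baseline and 20 min post-agonist.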
An asterisk follows results filed as active; u = inconclusive; & = joins results of further samples; [ ] = dose if it differs, or a comment. On the % scale 0 is the no-effect control and ±100 the full control effect; potency means the concentration at half of the fitted maximal effect.

SMILES	hNpr1 antagonist
O=C(NC1CCCN(c2cc(-c3ccc(F)cc3)[nH]n2)C1)c1ccc2ncccc2c1 (configuration not stated)	-19%
O=C(c1ccccc1)N1CCC2(CC1)CCN(Cc1cccs1)c1ccccc1O2	4%
O=C(c1cc(-c2ccccc2)n[nH]1)N1CCCC(Cc2noc(-c3cccnc3)n2)C1 (configuration not stated)	-14%
COC[C@@H]1CN(c2cnccn2)C[C@H]1C(=O)NCc1ccc(C)c(C)c1	1%
COc1ccc2nc3n(c2c1)[C@@H](CNC1CCCCC1)COC3	-15%[70.6 µM]
CCN1CCN(CCNC(=O)C23CCCC=C2N(C2CCCC2)C(=O)CC3)CC1 (configuration not stated)	-8%
O=C(c1ccc2nc[nH]c2c1)N1CCC(CO)(CCCc2ccccc2)CC1	11µM*
CC(C)Cn1cncc1CN1CCC2(CC1)C(C(=O)O)CC(=O)N2C (configuration not stated)	6%
CN(C)Cc1ccc(-c2cc(-c3ccc(=O)[nH]c3)c3cncn3c2)cc1	0%[70.6 µM]
COCC1(CNC(=O)c2cccnc2)C[C@@H](O)[C@@H](O)C1 (some centres not stated)	-5%[70.6 µM]
CCC1=C(C(=O)OC)C(c2cccc(F)c2)N2C(CC(=O)N3CCC(C)CC3)=CSC2=N1 (configuration not stated)	-20%
COCC(=O)N(C1CCOCC1)C1CCN(C(=O)c2ccc(OC)nc2)CC1	2%
Fc1ccc(CN2Cc3[nH]cnc3C[C@H]2c2nc(-c3ccc(F)c(Cl)c3)no2)cc1	-25%[70.6 µM]
COc1ccc(Nc2n[nH]c(C(O)c3cccc(C(F)(F)F)c3)n2)cc1OC (configuration not stated)	-24%[70.6 µM]
Cc1ncccc1C(=O)N1C[C@H]2OC(=O)N(CCc3cccc(Cl)c3)[C@H]2C1	1%
CN(C)c1nc2c(c(=O)[nH]1)CCN(Cc1ccc(OC(F)(F)F)cc1)CC2	3%
C=CCNC(=O)c1ccc(CN2C(=O)NC3(CCS(=O)(=O)CC3)C2=O)cc1	4%
O=C(Nc1cccc(OC(F)(F)F)c1)c1cc(-c2ccc[nH]2)n[nH]1	-6%
Cc1ccc(CN2CCCCCCNC(=O)[C@@H]3C[C@@H](C(=O)NCCc4c[nH]c5ccccc45)C[C@@H]32)o1	3%
COc1cccc(-c2noc(CC3CCN(C(=O)c4cc(Cl)ccc4F)CC3)n2)c1	8.9µM*
COCCN1C(=O)N(Cc2cccc3ccccc23)C(=O)C12CCN(Cc1cn(C)nc1C)CC2	3%
CCNC(=O)N1CCC(c2noc(-c3cccnc3)n2)C1 (configuration not stated)	0%
Cc1ccsc1CN1CCc2[nH]nc(C(=O)N3CCOCC3)c2C1	3%
COc1ccccc1Nc1ncc2c(n1)CN([S+](=O)([O-])c1ccccc1)CCN2	-11%[70.6 µM]
NC(=O)Cc1c[nH]c2ncc(-c3cccc(C(F)(F)F)c3)cc12	-27%[70.6 µM]
O=C(CCc1ccccc1)N1CCC[C@H]1c1nc(-c2ccccc2)no1	-14%
COc1ccccc1Nc1ncc2c(n1)CN(C(=O)COc1ccccc1)CCN2	-2%[70.6 µM]
COc1ccc(F)cc1S(=O)(=O)N1CCCC(Cn2c(C)nc3cccnc32)C1 (configuration not stated)	-20%
COC(=O)c1cccc(-c2nc(C3CC(=O)N(c4ccc(Cl)cc4)C3)no2)c1 (configuration not stated)	0%
O=C1CCN(S(=O)(=O)c2ccccc2)CCCN(C(=O)c2ccc3ccccc3n2)CCN1	3%
Cn1cnnc1CC1CCN(C(=O)CCc2nc3ccccc3[nH]c2=O)CC1	0%
CC(C)c1cc(NCCc2nc(N)cc(=O)[nH]2)n2nccc2n1	1%
Nc1nccc(N2C[C@H]3CN(C(=O)C4CCC4)C[C@@]3(C(=O)O)C2)n1	-3%
O=C(O)CSCC(=O)N[C@H]1C[C@H]2C(=O)Nc3ccc(-c4cccs4)cc3C(=O)N2C1	3%
CC(C)c1noc(-c2cn(C3CCCN(C(=O)c4ccc(F)cc4Cl)C3)nn2)n1 (configuration not stated)	u
O=C(c1cccc(Cl)c1)N1CCC(N2CC3CCCN3C2=O)CC1 (configuration not stated)	14%
COc1cc(-c2noc(-c3nc(-c4ccc(C)cc4)no3)n2)cc(OC)c1OC	8%
O=c1[nH]c(N2CCOCC2)nc2c1CCN(Cc1cccc(Cl)c1F)CC2	-5%
CCc1noc(-c2ccn3c(CNC(=O)c4ccncc4)nnc3c2)n1	11%
Cc1nc(CN2CCC3(CC2)CC(c2ccccc2)C(=O)N(C2CC2)C3)no1 (configuration not stated)	6%
O=C(COc1ccccc1)N1CCC(O)(c2csc(CN3CCOCC3)n2)CC1	5%[70.6 µM]
O=C(c1cccc(OC2CN(Cc3ccc(F)cc3F)C2)c1)N1CCCC1	0%
COc1ncccc1C(=O)N1CCc2onc(-c3cccc4ccccc34)c2C1	5%
COc1ccc(C2(c3nc(C4CC(=O)N(c5ccc(C)cc5)C4)no3)CC2)cc1 (configuration not stated)	-18%
Cc1occc1C(=O)N[C@@H]1CN(S(C)(=O)=O)C[C@H]1CN(C)C	-3%
COCC(=O)NC[C@@H]1C=C(C)[C@H](CC(=O)Nc2ccccn2)C[C@H]1C(C)C	-1%[70.6 µM]
CNC(=O)[C@@H]1CN(C(=O)c2ccc(F)cn2)C[C@H]1COC	3%
CC[C@@H]1[C@@H](NC(=O)CCCn2nnc(-c3ccc(F)cc3)n2)[C@@H]2CCO[C@H]12	-11%
COc1ccc(NC(=O)Cn2c(N3CCc4ccccc4C3)nc(C)cc2=O)cc1OC	-19%
O=C(COc1ccccc1)Nc1ccc2c(N3CCOCC3)ncnc2c1	-4%

Continuation.
compound | hNpr1 antagonist
Cc1nn(C(=O)CCC(=O)N2CCc3nc4cc[nH]n4c(=O)c3C2)c2ccccc12 | 2%
COCCN1C(=O)c2ccccc2C(C(=O)NCc2ccc(F)cc2)C12CCCC2 (configuration not stated) | 2%
c1ccc(CCN2CCNc3cc(NCCN4CCOCC4)ncc3C2)cc1 | 0%[70.6 µM]
Fc1ccc2nc(CO[C@H]3CN(Cc4ccccn4)C[C@H]3F)[nH]c2c1 | 4%[70.6 µM]
Cc1nn2c(c1-c1ccccc1Oc1ccccc1)N(Cc1cccc(C#N)c1)CCC2 | 3.2µM*
CN(C)C[C@@H]1CN(Cc2ccncc2)C[C@H]1NC(=O)Cc1ccsc1 | 2%
CSc1ccc(-c2ccc3c(c2)C(=O)N2CCN(C(=O)C4CCCCC4)C[C@@H]2C(=O)N3)cc1 | -13%
COc1ccc(NC2CCCN(C(=O)c3cn(CCCN)nn3)C2)cc1 (configuration not stated) | -1%
CCOc1ccccc1-c1noc(-c2nnn3c2COC(c2ccc(Cl)cc2)C3)n1 (configuration not stated) | -1%
CC(=O)c1cc(CN2CCn3nc(C(O)c4ccnn4C)cc3C2)cs1 (configuration not stated) | -9%
COCCN1C(=O)CSC12CCN(C(=O)Nc1ccccc1C)CC2 | 2%
CC(C)(C)C(Cn1ccnc1)NC(=O)c1cc(COc2ccc3c(c2)CCCC3)on1 (configuration not stated) | -14%
Cn1cc(-c2ccccc2F)c2nc(COc3ccccc3)cn2c1=O | 2%[70.6 µM]
O=C(CCc1nc2ccccc2s1)N[C@H](c1ccccn1)C1CC(O)C1 (some centres not stated) | 8%
Cc1cc(C)n(CCC(=O)N2CC(F)(F)C[C@H]2c2nc(C)no2)n1 | 7%
O=C(CC(c1cccc(O)c1)c1ccccc1Cl)NCc1cccnc1 (configuration not stated) | -20%
COc1cccc(CNC(=O)C2CCN(C(=O)c3ncn4c3COC(c3ccccc3)C4)CC2)c1 (configuration not stated) | 1%
O=C(O)CCCC(=O)N1CCN2C(=O)c3cc(Br)ccc3NC(=O)[C@@H]2C1 | 4%[70.6 µM]
CC(C)(C)CN[C@@H]1CO[C@H](CNS(=O)(=O)c2ccccc2)[C@H]1O | -2%[70.6 µM]
CCC(C)NC(=O)C1COC2(CCN(C(=O)c3cccc(OC)c3)CC2)N1C(=O)c1ccccc1C (configuration not stated) | -3%

Structural class, the compounds so far containing a CF3 group.
compound | hNpr1 antagonist
COc1ccc(Nc2n[nH]c(C(O)c3cccc(C(F)(F)F)c3)n2)cc1OC (configuration not stated) | -24%[70.6 µM]
CN(C)c1nc2c(c(=O)[nH]1)CCN(Cc1ccc(OC(F)(F)F)cc1)CC2 | 3%
O=C(Nc1cccc(OC(F)(F)F)c1)c1cc(-c2ccc[nH]2)n[nH]1 | -6%
NC(=O)Cc1c[nH]c2ncc(-c3cccc(C(F)(F)F)c3)cc12 | -27%[70.6 µM]

Continuation.
compound | hNpr1 antagonist
CC(C)c1ccc(C(=O)N2CC(C(=O)NCCc3ccncc3)C3(CCOCC3)C2)cc1 (configuration not stated) | -1%
Cc1noc(C)c1NC(=O)N[C@@H]1C[C@H](Cn2cc(CN3CCS(=O)(=O)CC3)nn2)[C@@H](O)[C@H]1O | 3%
CNC(=O)N1CCC(C2CCN(S(=O)(=O)c3cc(F)ccc3C)C2)CC1 (configuration not stated) | -15%
CN1CC(=O)N(c2cccnc2)Cc2c(NCC3CC3)ncnc21 | 4%[70.6 µM]
N#Cc1ccc(C(=O)N2CCC(Cc3ccc(C(N)=O)cc3)CC2)cc1 | -3%
O=C1CO[C@H](c2ccc(NS(=O)(=O)c3cccc(F)c3)cc2)[C@@H](CO)N1C1CCOCC1 | 6%
CC(Oc1ccccc1)C(=O)N1CCCC(n2cc(-c3nc(C4CC4)no3)nn2)C1 (configuration not stated) | -12%
Cc1cccc(CC(=O)N2CCC(Cc3nc(C(C)C)no3)CC2)c1 | 4%
c1ccc(-c2cc(NCCCOc3cccnc3)n3nccc3n2)cc1 | -3%
COCCN1CCCCC(CC(=O)Nc2cc(C)c(Cl)cc2OC)C1=O (configuration not stated) | 0%
Cc1nnc2n1CCC(N(C)C(=O)Cc1ccccc1F)CC2 (configuration not stated) | 3%
CC(C)(C)C(=O)NC[C@H]1O[C@H](Cc2cc(COc3ccccc3)on2)CC[C@@H]1O | -4%[70.6 µM]
O=C(c1ccc(C(F)(F)F)cc1)N1CCC2(CC1)CCN(Cc1cccs1)c1ccccc1O2 | -11%
COc1ccc(-c2cc(N3CCN(C(=O)c4cc(OC)cc(OC)c4)CC3)n[nH]2)cc1 | -13%
O=C(NCc1ccco1)N1C[C@@H]2CN(C(=O)C3CC3)C[C@]2(C(=O)O)C1 | 12%
Cc1ccc(-c2cccc(CN3C4CCC3CN(C(=O)Nc3ccccc3F)C4)c2)c(C)c1 | 11%
COCCCNC(=O)C(NC(=O)c1ccccc1)C1CCN(C(=O)c2ccc(Cl)cc2)CC1 (configuration not stated) | 0%
O=C(CN1CCCc2nc(-c3ccncc3)ncc2C1=O)NCC1CC1 | 3%
COCCN1C(=O)c2cccn2CC1CNC(=O)COc1ccc(F)cc1 (configuration not stated) | -3%
COC(=O)[C@H](NC(=O)[C@@H]1[C@@H](NC(=O)NC(C)C)CCN1C(=O)c1cccn1C)C(C)C | 1%[70.6 µM]

Three of the compounds above, with each value named:
c1ccc(-c2cc(NCCCOc3cccnc3)n3nccc3n2)cc1
  hNpr1 antagonist: -3%
CN1CC(=O)N(c2cccnc2)Cc2c(NCC3CC3)ncnc21
  hNpr1 antagonist: 4%[70.6 µM]
COCCCNC(=O)C(NC(=O)c1ccccc1)C1CCN(C(=O)c2ccc(Cl)cc2)CC1 (configuration not stated)
  hNpr1 antagonist: 0%

New compounds follow
compound | hNpr1 antagonist
CC(C)CCN1CCOc2cc(C(=O)Nc3ccc(F)cc3)ccc2C1 | u
CCOc1ccc2c(n1)CCN(C(=O)C1(c3ccccc3)CC1)C2 | -2%
OCCOc1ccc(-c2c(-c3ccccc3)ncn2CCc2cccnc2)cc1 | -3%
COCCC(=O)N[C@@H]1CN(Cc2ccccn2)C[C@H]1CN(C)C | 5%
CC(C)c1nc2c(c(-c3ccc(O)cc3)n1)CCN(Cc1ccccn1)CC2 | -2%
COc1ccc(NC(=O)Cn2c(=O)n(-c3ccccc3)c(=O)c3c2cc(C)n3C)cc1 | 1%
CSCC(=O)N1CC[C@H](NC(=O)Nc2ccc(F)cc2F)[C@H]1C(=O)N[C@@H](Cc1cccs1)C(N)=O | 1%
COc1ccc(CNC(=O)[C@@H]2CCC[C@@H](NCc3cccc(Cl)c3)CN(C)C(=O)C2)cc1 | -19%
Cc1noc(C)c1S(=O)(=O)NC1CCN(C(=O)N2CC3CC(C2)[C@H]2CCCC(=O)N2C3)CC1 (some centres not stated) | 6%
COc1ccc(N2CC(C(=O)N3CCC(C(=O)NCCCc4ccccc4)C3)NC2=O)cc1 (configuration not stated) | 0%&0%&0%
COCCOC1CCOC2(CCN(C(=O)c3ccc(OC)cc3)CC2)C1 (configuration not stated) | -3%
O=C(NCc1nnc2ccc(-c3ccccc3)nn12)c1cc2ccccc2[nH]1 | -20%
CN1CCC(N2CC[C@H](c3nc4ccccc4s3)C2)CC1 | 0%[70.6 µM]
O=C(c1ccno1)N1CCN2C(=O)N(Cc3ccc(F)cc3)C[C@H]2C1 | 15%[70.6 µM]
Cc1cccc(OCC(=O)NCc2nnc3ccc(-c4ccccc4)nn23)c1 | 0%
COc1ccc(-c2cc(N3CCCC(NC(=O)c4ccc5cc[nH]c5c4)C3)n[nH]2)cc1 (configuration not stated) | u
CCOc1ccccc1C(=O)N1CCC(Oc2ncccc2C(=O)N2CCCCC2)C1 (configuration not stated) | 7%
Cc1ccc(C(=O)N2CCC(n3cc(-c4nc(C)no4)nn3)CC2)cc1 | 5%
CC(C)Cc1cc(C(=O)N2CC(OCc3ccc(F)cc3)C2)on1 | 4%
CS(=O)(=O)Nc1ccc(C2(C(=O)N3CCN(c4ccccc4)CC3)CCCCC2)cc1 | -2%

These rows are one share of the data; count on the stated rates, not on these rows.
